Screening results deposited in PubChem by National Center for Advancing Translational Sciences (NCATS).
TRPML1 inh – qHTS for Inhibitors of the Human Mucolipin Transient Receptor Potential 1 (TRPML1); activity change, negative = inhibition, % (test concentration not listed); Mucolipin-1 (Homo sapiens), Q9GZU1; TRPML1-inducible cells, Ca2+ dye fluorescence, FDSS; stronger effect = lower value; inhibition of EC80 agonist-evoked calcium signal; 0.02% of 390,000 active; in the data active means activity change below about -50%; inconclusive means about -30% to -50%; inactive means above about -30%;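 further: stimulus is agonist 54-4 at its EC80 concentration; on the % scale 0 is the no-effect control and ±100 the full control effect; compound concentration not given in the record; the text of the record puts the active cut at -80%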
Target sequence (Q9GZU1 whole entry, looked up): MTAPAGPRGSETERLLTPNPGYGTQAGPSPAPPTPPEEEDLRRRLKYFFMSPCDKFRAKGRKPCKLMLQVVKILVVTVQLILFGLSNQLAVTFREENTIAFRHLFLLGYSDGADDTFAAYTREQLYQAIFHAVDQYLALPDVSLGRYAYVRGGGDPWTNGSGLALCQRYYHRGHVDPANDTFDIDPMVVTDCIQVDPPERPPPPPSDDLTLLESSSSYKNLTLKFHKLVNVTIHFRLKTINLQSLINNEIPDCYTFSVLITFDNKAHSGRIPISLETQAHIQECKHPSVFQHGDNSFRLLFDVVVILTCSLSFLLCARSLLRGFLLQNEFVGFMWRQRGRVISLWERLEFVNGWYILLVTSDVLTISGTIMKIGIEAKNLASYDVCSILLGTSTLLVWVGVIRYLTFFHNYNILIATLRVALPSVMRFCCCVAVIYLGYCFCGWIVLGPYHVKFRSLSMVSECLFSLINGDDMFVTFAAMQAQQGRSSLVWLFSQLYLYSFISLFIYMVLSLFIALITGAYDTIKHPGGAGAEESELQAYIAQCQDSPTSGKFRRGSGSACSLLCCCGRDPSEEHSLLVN
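Tet-induced TRPML1-DL cells loaded with Ca8 no-wash calcium dye were read kinetically on FDSS. Compound addition was followed by EC80 agonist 54-4 (4 uM final); inhibition was read over 110 s.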
TRPV1 PAM – HTS Assay for Compounds that Act as Potentiators of the Vanilloid Receptor 1 | TRPV1-expressing cells, Fluo-8 calcium influx, capsaicin EC20 potentiation; host cell line not named in the record; control for the full effect not named in the record | potentiation, % at 8.33 µM | 0.02% of 320,000 active | AID 540277, 2011; active means potentiation above 80%; inconclusive means 30% to 80%; inactive means below 30%; further: 0% is about no effect
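Cells expressing TRPV1 were dye-loaded with Fluo-8 and read kinetically: 10 s baseline, 3 min after compound (agonist portion), then 2 min after EC20 capsaicin (allosteric enhancer portion). Calcium-bound dye fluorescence at 480/520 nm.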
Menin MLL FP FL – qHTS Assay for Inhibitors Targeting the Menin-MLL Interaction in MLL Related Leukemias: Competition With Fluorescein Labeled MLL-derived Peptide; Fluorescence polarization, fluorescein-MLL peptide displacement from menin; FP activity change, % at 61.4 µM; 290,000 tested, under 10 active; inconclusive = falling polarisation curve, or a change in total fluorescence; inactive = total fluorescence flat and polarisation flat or rising; no compound was filed as active; the % refers to the polarisation; negative = inhibition;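 further: % of control where 0% means no effect; inhibitors lower the polarisation; unlabelled MLL peptide was the positive control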
PINK1 modulator – A Quantitative High throughput Screen to Identify Chemical Modulators of PINK1 Expression; Potency, µM (top dose mostly 76.6 µM), for inactives: top-dose activation (PINK1 increase), usual class: activators; 0.2% of 410,000 active; PINK1 immunofluorescence, high-content cytometry, 24 h; active = well fitted activation curve with a large enough effect; inconclusive = small, poorly fitted or top-dose-only effect; inactive = flat fitted curve, though single readings scatter; cell line not stated here;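 further: potency means the concentration at half of the fitted maximal effect; % of control where 0% means no effect; nearly all actives have a fitted effect of over 65% in size; a mitochondrial uncoupler was the plate control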
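Compound titrations (5 concentrations, 24 h) on a stable cell line; DMSO and CCCP controls. Endpoint: fixed-cell PINK1 immunofluorescence with mitochondrial, cell and nuclear markers, scanned by microplate cytometer.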
Sfp PPTase inh – qHTS Assay for Inhibitors of Bacillus subtilis Sfp phosphopantetheinyl transferase (PPTase) | 3.5% of 310,000 active | Potency, µM, inactives show max response, negative = inhibition, actives largely listed as inhibitors | 4'-phosphopantetheinyl transferase ffp (Bacillus subtilis), Q9F4F7 | Biochemical Sfp PPTase activity, qHTS; active means well fitted inhibition curve with a large enough effect; inconclusive means small, poorly fitted or top-dose-only effect, or another doubt; inactive means no such curve, though single readings can be large or run the other way;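 further: the enzyme is Sfp with the accession as filed and its product quenches rhodamine fluorescence; potency means the concentration at half of the fitted maximal effect; 0% = enzyme reaction without inhibitor and -100% = no enzyme wells; top concentration of the series not given in the record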
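Compounds were incubated with enzyme (final 15 nM) for 15 min at room temperature before substrate addition started the reaction. Fluorescence at 525 nm excitation, 598 nm emission was recorded immediately and after 30 minutes.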
ClpP mod – qHTS Assay for Activators of ClpP; 1.9% of 340,000 active; Potency, µM (series often up to 57.5 µM), for the others: at the top dose activity change, negative = active; ATP-dependent Clp protease proteolytic subunit (Bacillus subtilis (strain 168)), P80244; purified B. subtilis ClpP, FRET peptide cleavage, 20 min; active = well fitted falling curve with a large enough effect; inconclusive = small, poorly fitted or top-dose-only effect; inactive = no such curve, though single readings can be large or run the other way; further: potency means the concentration at half of the fitted maximal effect; the source files actives as falling curves though it sought activators and does not explain the sign; nearly all actives have a fitted effect of over 65% in size; many hits overshoot -100%
Target sequence (P80244 whole entry, looked up): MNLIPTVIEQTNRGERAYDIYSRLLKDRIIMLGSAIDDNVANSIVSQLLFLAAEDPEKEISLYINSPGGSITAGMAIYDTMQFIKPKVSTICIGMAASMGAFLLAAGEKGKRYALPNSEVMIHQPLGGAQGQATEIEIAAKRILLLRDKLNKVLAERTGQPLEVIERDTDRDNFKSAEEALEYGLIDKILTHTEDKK
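Buffer: 100 mM Tris/HCl pH8, 100 mM KCl, 0.05% low protease BSA, 2.5% glycerol, 0.01% Tween-20. ClpP 10 microg/mL final; 20 min RT; delta FRET normalized to ADEP and DMSO controls.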
TRPML1 ag – qHTS for Agonists of the Human Mucolipin Transient Receptor Potential 1 (TRPML1) | TRPML1-expressing cells, Ca2+ dye fluorescence, FDSS; host cell line not named in the record; reference of the full effect not given here | activation, % (test concentration not listed) | Mucolipin-1 (Homo sapiens), Q9GZU1 | AID 624414, 2012 | 0.12% of 410,000 active; in the data active = activation above about 50%; inconclusive = about 30% to 50%; inactive = below about 30%; further: 0% is about no effect; the text of the record puts the active cut at 80%
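Tetracycline-induced TRPML1-DL cells are seeded and incubated overnight before loading with a no-wash Ca2+ dye and quencher. Agonist activity is taken from the 110 s fluorescence read following compound pin-transfer on an FDSS, before EC80 54-4 challenge.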
* = called active by the depositor; [ ] = another dose, or the depositor's remark.

`COc1ccc(NC(=S)NC2CC3CCC(C2)N3Cc2ccco2)cc1` (configuration not stated) gave TRPML1 inh -6, TRPV1 PAM 5, Menin MLL FP FL -0.1, PINK1 modulator 0.7%, Sfp PPTase inh 7%, ClpP mod 1.2% and TRPML1 ag 0.0.
CCN(C(=O)[C@@H]1CCCN1C(=O)c1cccs1)c1nc2cc(Cl)ccc2s1 was read as TRPML1 inh 36, TRPV1 PAM 4, Menin MLL FP FL 0.1, PINK1 modulator 3.6%, Sfp PPTase inh -2%, ClpP mod -3.2% and TRPML1 ag 1.3.
`O=C(COC(=O)C1=COCCO1)NC1CCCCCCC1` gave TRPML1 inh -11, TRPV1 PAM -1, Menin MLL FP FL 3.7, PINK1 modulator 2.5%, Sfp PPTase inh 14% and TRPML1 ag -0.4.
Screening Cc1ccc(-c2nc3sc(C#N)c(N)n3c(=O)c2C#N)cc1 returned TRPML1 inh 6, TRPV1 PAM -1, Menin MLL FP FL inconclusive, PINK1 modulator inconclusive, Sfp PPTase inh -10% and TRPML1 ag 13.
`O=C(CCSCCc1ccccn1)Nc1ccc(Cl)cn1` gave TRPML1 inh -6, TRPV1 PAM 10, Menin MLL FP FL -2.9, PINK1 modulator -4.5%[38.3 µM], Sfp PPTase inh 5%, ClpP mod -0.6% and TRPML1 ag -0.4.
`O=C(OCCN=C1NS(=O)(=O)c2ccccc21)C1CC(=O)N(c2ccc3ccccc3c2)C1` (configuration not stated) gave TRPML1 inh 17, TRPV1 PAM 3, Menin MLL FP FL -0.3, PINK1 modulator 3.4%, Sfp PPTase inh 22%, ClpP mod -0.4% and TRPML1 ag -0.3.
CN1C(=O)NC(c2ccc(O)cc2)C2=C1CN(c1ccc(O)cc1)C2=O (configuration not stated) was read as TRPML1 inh -11, TRPV1 PAM -1, Menin MLL FP FL -0.3, PINK1 modulator 1.0%, Sfp PPTase inh 22% and TRPML1 ag -0.3.
Cc1onc(-c2ccccc2)c1C(=O)Nc1nc2c(s1)CCCC2 was read as TRPML1 inh -10, TRPV1 PAM 11, Menin MLL FP FL 1.3, PINK1 modulator 4.8%, Sfp PPTase inh 3%, ClpP mod 2.2% and TRPML1 ag 2.7.
Screening COc1ccc(CN2CSC(=S)N(Cc3ccc(OC)cc3)C2)cc1 returned TRPML1 inh 12, TRPV1 PAM inconclusive, Menin MLL FP FL 1.2, PINK1 modulator 1.7%, Sfp PPTase inh 1%, ClpP mod 0.6% and TRPML1 ag 1.5.
Screening CN(CCO)c1cccc2c1S(=O)(=O)N[C@@H](Cc1ccccc1)CO2 returned PINK1 modulator -0.4%, ClpP mod -4.5% and TRPML1 ag 3.5.
CN1C(=O)c2ccc(NC(=O)CSc3ccccc3)cc2C1=O was read as TRPML1 inh -5, TRPV1 PAM 0, Menin MLL FP FL 2.6, PINK1 modulator 1.0%, Sfp PPTase inh 14%, ClpP mod 0.9% and TRPML1 ag 0.9.
For C[C@@H]1COc2cc(N3CCC[C@H]3CO)ccc2S(=O)(=O)N1 the results were PINK1 modulator -0.2%, ClpP mod -2.4% and TRPML1 ag -0.1.
Screening Cn1cc(Br)c(C(=O)NNC(=O)c2ccc(Cl)cc2)n1 returned TRPML1 inh -8, TRPV1 PAM -5, Menin MLL FP FL 9.7, PINK1 modulator 0.5%, Sfp PPTase inh 15%, ClpP mod 0.8% and TRPML1 ag 1.3.
O=C(N/N=C/c1ccc(OC(=O)c2ccccc2Br)cc1)c1ccccn1 was read as TRPML1 inh 10, TRPV1 PAM -4, PINK1 modulator 14%, Sfp PPTase inh 10%, ClpP mod 40% and TRPML1 ag -0.4.
`COc1ccc(-n2c(SCC(=O)c3c(N)n(C)c(=O)n(C)c3=O)nc3ccccc32)cc1` gave TRPML1 inh 26, TRPV1 PAM -11, Menin MLL FP FL 2.7, PINK1 modulator 9.0%, Sfp PPTase inh -22%, ClpP mod -1.9% and TRPML1 ag -0.6.
Screening CN(C)S(=O)(=O)c1cccc(C(=O)N2CCN(C(=O)C3CCCO3)CC2)c1 (configuration not stated) returned TRPML1 inh -19, PINK1 modulator 0.0%, ClpP mod -0.8% and TRPML1 ag 1.2.
Screening CCCc1ccc(-c2ccc(C(=O)O)cc2)nc1 returned TRPML1 inh -13, TRPV1 PAM -15, Menin MLL FP FL -0.3, Sfp PPTase inh 1%, ClpP mod -3.3% and TRPML1 ag 2.2.
Screening Cc1ccc(C(=O)CCC(=O)N2CCN(C/C=C/c3ccccc3)CC2)cc1 returned TRPML1 inh -4, PINK1 modulator -0.2%, ClpP mod -0.6% and TRPML1 ag -0.8.
`CC(C)OC(=O)CSc1nnc2c3ccccc3n(C)c2n1` gave TRPML1 inh 11, TRPV1 PAM 0, Menin MLL FP FL 1.0, PINK1 modulator -1.9%, Sfp PPTase inh 6%, ClpP mod 0.9% and TRPML1 ag 4.0.
COCCNC(=O)C(c1ccc(C)cc1)N(CCOC)C(=O)CCC(=O)Nc1ccccn1 (configuration not stated) was read as TRPML1 inh 20, TRPV1 PAM 21, Menin MLL FP FL -7.8, PINK1 modulator 1.0%, Sfp PPTase inh 14%, ClpP mod 0.5% and TRPML1 ag -0.5.
Screening Cc1csc(NC(=O)CSc2nnc3ncccn23)n1 returned TRPML1 inh 8, TRPV1 PAM 6, Menin MLL FP FL 3.8, PINK1 modulator 12%[38.3 µM], Sfp PPTase inh -18%, ClpP mod 0.7% and TRPML1 ag -0.2.
Cn1cnnc1SCc1ccc(C(=O)N/N=C/c2cccs2)cc1 was read as TRPML1 inh -13, TRPV1 PAM 3, Menin MLL FP FL -2.8, PINK1 modulator -1.3%, Sfp PPTase inh 17%, ClpP mod -1.8% and TRPML1 ag -0.2.
COC(=O)c1ccc(C2C(Oc3ccccc3)C(=O)N2CCc2ccc(OC)c(OC)c2)cc1 (configuration not stated) was read as TRPML1 inh 1, TRPV1 PAM 2, Menin MLL FP FL 3.9, PINK1 modulator 5.3%[38.3 µM], Sfp PPTase inh 9%, ClpP mod -1.6% and TRPML1 ag -0.4.
`Cc1nc(N2CCCC2)c2c(C(=O)Nc3ccc(Br)cc3F)c(C)oc2n1` gave TRPML1 inh -12, PINK1 modulator -0.1%, ClpP mod 0.6% and TRPML1 ag 0.8.
Screening CC(C)C(C)(C#N)NC(=O)CSc1nnc(C(F)(F)F)n1C (configuration not stated) returned TRPML1 inh 1, TRPV1 PAM -9, Menin MLL FP FL 2.5, PINK1 modulator 1.2%, Sfp PPTase inh 3%, ClpP mod -5.8% and TRPML1 ag -0.4.
`C(=N\Nc1nc(N2CCOCC2)nc(N2CCOCC2)n1)/c1ccco1` gave TRPV1 PAM 0, Menin MLL FP FL 0.4 and Sfp PPTase inh 19%.
Screening O=[N+]([O-])c1cccc(-c2csc(Nc3ccccc3)n2)c1 returned TRPML1 inh 40, TRPV1 PAM 0, Menin MLL FP FL -4.8, PINK1 modulator 1.1%, Sfp PPTase inh -14% and TRPML1 ag 3.5.
Screening COc1ccc(S(=O)(=O)N2CCC(C(=O)NCCC(=O)Nc3ccccc3OC)CC2)cc1 returned TRPML1 inh -4, PINK1 modulator 4.4%, ClpP mod 1.1% and TRPML1 ag -1.3.
For COc1ccc2[nH]cc(CCNc3ncncc3-c3cccnc3)c2c1 the results were Menin MLL FP FL -1.2, PINK1 modulator -0.9% and Sfp PPTase inh inconclusive.
For O=C(NNS(=O)(=O)c1ccc([N+](=O)[O-])cc1)c1ccc([N+](=O)[O-])cc1 the results were TRPML1 inh -7, TRPV1 PAM 2, Menin MLL FP FL -0.2, PINK1 modulator -1.3%, Sfp PPTase inh 2% and TRPML1 ag 1.3.
For CC(C)(c1ccccc1)c1ccc(OCCN)cc1 the results were TRPML1 inh 25, TRPV1 PAM 9, Menin MLL FP FL -0.6, PINK1 modulator inconclusive, Sfp PPTase inh inconclusive, ClpP mod 0.9% and TRPML1 ag 0.2.
CC(OC(=O)c1ccco1)C(=O)Nc1ccc(C(F)(F)F)cc1 (configuration not stated) was read as TRPML1 inh 14, TRPV1 PAM 4, PINK1 modulator 2.7%, ClpP mod 0.0% and TRPML1 ag -0.3.
CC(C)(C)[C@H]1COC(=O)CCC/C=C/C[C@H](CC(=O)N(CCO)Cc2ccccc2)C(=O)N1 was read as TRPML1 inh -9, PINK1 modulator -1.7%, ClpP mod -3.0% and TRPML1 ag -0.4.
COCCn1c(SCC(=O)NNC(=O)c2ccccc2)nc2ccccc21 was read as TRPML1 inh -2, PINK1 modulator -3.0% and TRPML1 ag -0.1.
`CCCc1nnn(S(=O)(=O)c2ccc([N+](=O)[O-])cc2)c1CCC` gave TRPML1 inh -9, PINK1 modulator 6.8%, ClpP mod 1.5% and TRPML1 ag 1.3.

Random excerpt: 4 records from the list.
Screening COc1ccc(S(=O)(=O)N2CCC(C(=O)NCCC(=O)Nc3ccccc3OC)CC2)cc1 returned TRPML1 inh -4, PINK1 modulator 4.4%, ClpP mod 1.1% and TRPML1 ag -1.3.
`CCCc1nnn(S(=O)(=O)c2ccc([N+](=O)[O-])cc2)c1CCC` gave TRPML1 inh -9, PINK1 modulator 6.8%, ClpP mod 1.5% and TRPML1 ag 1.3.
Screening CC(C)C(C)(C#N)NC(=O)CSc1nnc(C(F)(F)F)n1C (configuration not stated) returned TRPML1 inh 1, TRPV1 PAM -9, Menin MLL FP FL 2.5, PINK1 modulator 1.2%, Sfp PPTase inh 3%, ClpP mod -5.8% and TRPML1 ag -0.4.
`C(=N\Nc1nc(N2CCOCC2)nc(N2CCOCC2)n1)/c1ccco1` gave TRPV1 PAM 0, Menin MLL FP FL 0.4 and Sfp PPTase inh 19%.
